Mtb hypoxia inh – PubChem AID 1159583 | fluorescence inhibition, % (test concentration not listed) | 300,000 compounds, 0.1% hits | M. tuberculosis hypoxia-regulated fluorescent reporter, fluorescence;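 active = 35 to 45% if threefold the growth effect, above 45% if 1.5-fold the growth effect; inactive = the rest, general growth blockers included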;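 note: wells of about 50 µL received 100 nL stock; 0% = vehicle wells and 100% = reference inhibitor wells; whole bacteria with a GFP reporter of the hypoxia response; strong numbers were not always called active; many hits fall short of the cut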
Autofluor counter – flagged as autofluorescent in microsphere protease counterscreen; compound autofluorescence counterscreen, microsphere flow cytometry; stronger effect = higher value; fluorescence intensity (no concentration beside the values); 360,000 compounds, 3.1% hits;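 active = at least 3 SD above the mean of all compounds, about 16000 in these data; inconclusive = too few beads counted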;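 note: 100 nL of 1 mM stock went into each well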
RN4220 kill – growth inhibition of S. aureus RN4220, primary screen, OD600 | 330,000 compounds, 0.33% hits | inhibition, % (concentration not given with the values) | 16 h;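 active = z-score of -3 or lower and OD600 up to 0.18 on both plates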;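 note: plate controls were untreated cells for no effect and reference antibiotic for full effect; stock transfer was 100 nL into about 80 µL; one replicate is shown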
ugtP null kill – growth inhibition of ugtP-null S. aureus, primary screen, RN4220 ugtP deletion, OD600. 16 h; some inactives read as strong as hits. AID 1259309, 2017. 330,000 compounds, 0.54% hits. growth inhibition, % (concentration not given with the values);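 active = z-score under -3 and OD600 up to 0.15 on both plates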;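 note: plate controls were untreated wells for no effect and antibiotic for full effect; wells of about 80 µL received 100 nL stock; the first replicate is given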
BJeLR viability – MLPCN primary cell-based screen for lethality selective to Ras in HRASV12 cells; BJeLR (HRASV12) viability, CellTiter-Glo ATP luminescence, 48 h; reference of the scale not given here; 300,000 compounds, 0.17% hits; AID 1554, 2009; inhibition, % (no concentration beside the values);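 active = replicate mean above 50%; inconclusive = above 50% but judged a plate artefact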;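 note: 50 nL library stock added to about 25 µL; numbers are from one replicate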
PrP 5UTR inh – inhibition of PrP 5' UTR reporter expression | cell-based PrP 5' UTR mRNA reporter, plate reader | inhibition, % (concentration not given with the values) | 340,000 compounds, 0.35% hits;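 active = every replicate at 50% or more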;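 note: 0 = median of the neutral control wells; tested in H4 reporter cells; numbers are from one replicate; inactives centre near -14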
Mtb hypoxia inh growth – also measured in Mtb hypoxia inh; calls as there; growth inhibition, %; measured here: M. tuberculosis growth (absorbance);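 0% = vehicle and 100% = reference antibiotic; read after six days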
An asterisk follows results filed as active; u = inconclusive; x = not tested or not shown.

The line under a structure holds: ugtP null kill	PrP 5UTR inh	Mtb hypoxia inh growth	RN4220 kill	BJeLR viability	Mtb hypoxia inh	Autofluor counter
- Cc1ccccc1N1C(=O)C2ON(c3ccccc3)C(c3cccnc3)C2C1=O (stereo not given)
 : -11	-17	7	7.1	5	3	5262
- O=C(NC1CCCCC1NC(=O)c1cccs1)c1cccs1 (stereo not given)
 : 0	-8	-3	1.4	4	0	2900
- Cc1ccc(S(=O)(=O)c2nc(S(C)(=O)=O)sc2N2CCCC2)cc1
 : 10	-3	6	-1.8	0	8	5607
- COc1ccc(CN(CC(=O)NCc2ccc(F)cc2)C(=O)c2csnn2)cc1
 : 4	-5	-1	0.0	0	4	3465
- CCCCN(C(=O)c1c(-c2ccccc2)noc1C)c1c(N)n(CCC)c(=O)[nH]c1=O
 : 5	x	11	6.4	x	9	x
- O=C(c1ccccc1F)N(Cc1nc2ccccc2c(=O)[nH]1)C1CCCC1
 : 9	-23	11	-2.5	6	1	4226
- CC(=O)N1CCN(c2ccc(N)cc2)CC1
 : 1	-22	-2	2.7	x	2	3344
- COc1cc2[nH]c(=O)n(CCC(=O)N3CCN(c4cccc(C)c4C)CC3)c(=O)c2cc1OC
 : 4	3	-1	2.5	-5	-1	6674
- CC(=O)C(Cc1ccccc1)NC(=O)CN1CCc2ccccc2C1 (stereo not given)
 : 8	7	-3	4.1	4	-3	3588
- Cc1cccc(C)c1NC(=O)COC(=O)CSc1nnc(N)s1
 : 12	-12	1	2.7	-1	4	2366
- CC(C)C(=O)N1CCC(CN=Cc2c(O)n(C3CCCCC3)c(=O)n(C3CCCCC3)c2=O)CC1
 : -11	-8	18	-2.3	x	-14	2459
- COc1ccc(OC)c(NC(=O)c2cc(OC(C)=O)cc(C(=O)Nc3cc(OC)ccc3OC)c2)c1
 : -13	-7	0	1.2	-10	2	x
- Cc1cccc(CN2CCC(C(=O)Nc3ccc(Oc4cccnc4)cc3)CC2)c1
 : 0	-2	6	0.9	-2	6	5125
- CN(C)C(=O)Cn1c(SCC(=O)Nc2ccc3c(c2)OCO3)nc2ccccc21
 : -8	-2	x	0.2	-7	x	2654
- Cc1cc(C=C2C(=O)NC(=S)NC2=O)c(C)n1C1CCCC1
 : 5	-63	8	4.3	9	9	4117
- O=C(Nc1cc([N+](=O)[O-])ccc1N1CCCC1)c1cccs1
 : 6	-3	-3	0.6	3	11	5891
- Nn1c(SCc2nc3ccccc3[nH]2)nnc1-c1cccnc1
 : 3	-33	1	6.9	6	0	22326*
- CCC(=O)NC(c1ccccc1Cl)c1c(O)ccc2ccccc12 (stereo not given)
 : 2	-18	-3	-1.4	-6	-4	2167
- O=C(O)CC(CC(=O)Nc1ccc(C(=O)O)cc1)c1ccccc1 (stereo not given)
 : 3	-19	9	7.3	0	7	5275
- CCOc1ccc(CCNC(=O)COC(=O)CNS(=O)(=O)c2ccc(NC(C)=O)cc2)cc1OCC
 : 6	-11	3	0.2	-1	6	u
- CCN(CC)CCN1C(=O)C(=O)/C(=C(/O)c2c(C)[nH]c(C(=O)OC)c2C)C1c1ccco1 (stereo not given)
 : -5	-14	10	6.6	-3	-3	7124
- COc1ccc2nc3oc(C(=O)NCCCOC(C)C)cc3cc2c1
 : 0	-50	1	-1.9	0	-4	4091
- COc1ccc(C=NNC(=O)c2[nH]nc3c2CCc2ccccc2-3)cc1OC
 : -4	x	4	15	x	2	x
- O=C(COc1ccccc1)NCc1n[nH]c(=S)n1-c1ccccc1
 : 17	1	4	4.0	7	6	4390
- COc1cc(N)c(Cl)cc1C(=O)OCC(=O)NC1CCCC1
 : 8	-9	9	3.7	10	6	4143
- Cc1cc(C)c(S(=O)(=O)N2CCN(C(=O)c3ccccc3OCc3c(C)noc3C)CC2)c(C)c1
 : 5	-19	4	9.7	x	10	3626
- O=C(CCC(=O)N1CCSc2ccccc21)NC1CCCCC1
 : -5	9	x	2.0	-7	x	5997
- COC(=O)c1cnn(-c2ccccc2)c1C(OC)OC
 : 17	4	10	5.5	-12	-5	3080
- COc1ccc(C(=O)Cc2ccc(OC)c(OC)c2)cc1
 : 0	-66	9	5.8	6	-1	7424
- Cc1ccc(NC2Nc3cc(C)nn3S2)c(C)c1 (stereo not given)
 : 2	-47	12	-1.5	15	-1	3639
- COc1ccc(Br)cc1CN1CCCCCC1
 : x	-33	x	x	-8	x	3328
- CCCCn1c2nc3ccccc3nc2c2c(=O)n(CCC)cnc21
 : -15	-11	6	17	2	17	2155
- CCCCn1c(N)c(N(CCOC)C(=O)C2CCN(S(=O)(=O)c3ccc(F)cc3)CC2)c(=O)[nH]c1=O
 : 6	-17	6	-1.4	6	-3	4769
- COc1ccc(CNC2CCSc3ccccc32)cc1OC (stereo not given)
 : -2	-6	7	2.0	5	15	3425
- O=C(COc1ccc(C=NNC(=O)c2ccc(O)cc2)cc1)Nc1ccc([N+](=O)[O-])cc1
 : 1	x	4	6.2	x	3	x
- CCc1nn(CCCC(=O)N2CCN(c3cccc(C)c3C)CC2)c(=O)c2cc3occc3n12
 : -8	-22	6	-8.6	-11	2	5608
- CCOC(=O)c1ccccc1NC(=O)CN1CCC(n2nnc3cc(F)ccc32)CC1
 : 0	-12	3	1.1	x	10	4545
- COc1ccc(C(=O)N2CCC(c3ccccc3)CC2)c(OC)c1OC
 : 1	-17	-3	4.5	-4	2	4135
- COc1ccc(C2c3ccsc3CCN2C(C)=O)cc1 (stereo not given)
 : 2	-35	11	1.1	5	3	4613
- O=C(CCNC(=O)c1ccccc1Cl)NCC1CCCO1 (stereo not given)
 : 0	-3	-1	2.3	1	12	6151

Limited to PrP 5UTR inh and Mtb hypoxia inh growth (2 entries from above):
| Molecule | PrP 5UTR inh | Mtb hypoxia inh growth |
| --- | --- | --- |
| CCCCn1c(N)c(N(CCOC)C(=O)C2CCN(S(=O)(=O)c3ccc(F)cc3)CC2)c(=O)[nH]c1=O | -17 | 6 |
| CCOc1ccc(CCNC(=O)COC(=O)CNS(=O)(=O)c2ccc(NC(C)=O)cc2)cc1OCC | -11 | 3 |

Next entries:
The line under a structure holds: ugtP null kill	PrP 5UTR inh	Mtb hypoxia inh growth	RN4220 kill	BJeLR viability	Mtb hypoxia inh	Autofluor counter
- S=c1[nH]nc(CSc2nc3ccccc3s2)n1Cc1ccccc1
 : -1	-17	5	6.1	-8	9	3019
- O=C(N1CCCC1)C12CC3CC(C1)CC(C(=O)N1CCCC1)(C3)C2
 : 0	-13	-8	2.7	-3	8	2407
- Cc1ccc(CNC(=O)Cn2cnc(S(=O)(=O)N3CCCCC3)c2)o1
 : 2	-12	5	0.4	0	3	5201
- COc1ccc(-c2nnc(NC(=O)C(C)C)o2)cc1
 : 9	-4	4	2.1	-1	9	5983
- c1ccc(C2Nc3cccc4cccc(c34)N2)cc1
 : x	-29	x	x	5	x	3621
- COc1cc(/C=C2\C(C)=C(C#N)c3nc(N)c(C#N)c(C)c32)ccc1OCC(=O)O
 : x	-20	x	x	-3	x	3974
- CCOc1ccc(C(=O)Cn2cnnc2C#N)cc1
 : 9	-22	1	-3.0	-3	8	4628
- Cc1c(/C(O)=C2/C(=O)C(=O)N(CCN3CCOCC3)C2c2ccccn2)cnn1-c1ccccc1 (stereo not given)
 : 6	32	0	6.6	-6	11	4384
- Nc1nccc(/C=C/c2c(F)cccc2Cl)n1
 : 13	-30	15	7.4	-3	7	2539
- Cc1cc(NC(=O)CN2C(=O)NC3(CCC(C)CC3)C2=O)no1 (stereo not given)
 : 2	-2	16	2.9	-5	-10	2473
- NC(=O)COc1cccc(C=NNC(=O)c2ccc(-n3cccc3)cc2)c1
 : 7	x	-3	2.1	x	18	x
- Nc1c(C(=O)Nc2ccc3c(c2)OCCO3)nnn1Cc1ccc(F)cc1
 : -1	-95	9	3.5	14	4	x
- O=C(CS(=O)(=O)c1cn(CC(=O)N2CCCC2)c2ccccc12)Nc1ccccc1
 : -2	-21	10	-1.7	7	7	5395
- O=C(CN1C(=O)C2C3CCC(C3)C2C1=O)OCC(=O)c1ccccc1 (stereo not given)
 : 6	-40	-10	2.4	6	8	5535
- COc1ccc(C(=O)Cc2nnc(C)s2)c(OC)c1
 : 1	-22	1	-1.4	-3	-7	2308
- CCOCCCNC(=O)C1(O)c2ccccc2NC(=O)N1c1ccc(C)c(C)c1 (stereo not given)
 : 2	-22	6	1.6	-6	16	3635
- COc1ccccc1CNC(=O)COC(=O)C1CC1
 : -6	-16	7	0.0	x	10	2907
- COC(=O)[C@H]1C[C@H]1[C@@H](NC(=O)c1ccc[nH]1)c1ccccc1
 : x	-8	x	x	14	x	3045
- Cc1nc(-c2ccccc2)nc2[nH]c(C(C)C)cc(=O)c12
 : -27	-24	5	-3.4	24	4	6434
- CCOc1ccc(C(=O)NCC(=O)Nc2ccc(N3CCOCC3)cc2)cc1OCC
 : 10	-16	4	-4.9	9	3	4400
- Cc1c(C(=O)N2CCCC2)oc2c1-c1nn(CC(=O)NCCCOC(C)C)cc1CC2
 : -1	8	-5	3.1	7	-6	4732
- CCSCc1nnc(SCC(=O)Nc2cccc(SC)c2)n1C
 : -6	-18	-8	2.1	-6	10	2878
- COC(=O)C1=C(c2cccc(OC)c2OC)CC2CCC1N2C (stereo not given)
 : -1	x	9	0.7	x	7	x
- O=C1[C@H](c2ccccc2)[C@@H](c2ccccc2)N1c1ccncc1
 : 6	-3	2	-1.4	x	-1	3745
- Cc1ccc(CNC(=O)Cn2cncn2)cc1
 : -1	-18	-4	1.5	10	5	9262
- Cc1c(OC2OC(CO)C(O)C(O)C2O)c(CO)c(OC2OC(CO)C(O)C(O)C2O)c2c1OC(c1ccccc1)CC2O (stereo not given)
 : -10	x	13	8.8	x	5	x
- CC(Oc1ccc(C(=O)c2ccccc2)cc1)C(=O)N1CCOCC1 (stereo not given)
 : 1	-20	5	-0.9	1	8	u
- CCn1c(CN2CCOCC2)nnc1SCC(=O)Nc1ccc(C)cc1
 : 3	-17	2	0.9	8	2	6000
- CCCC1=Nc2cc(C(=O)N3CCCC3)ccc2Sc2ccc(C)cc21
 : -5	-8	-6	-1.0	7	2	5014
- COc1ccc(NC(=O)CSc2nnc(N)s2)cc1
 : 2	-18	0	6.9	-1	9	3000

The last two entries of the part above come first, to join the parts:
The line under a structure holds: ugtP null kill	PrP 5UTR inh	Mtb hypoxia inh growth	RN4220 kill	BJeLR viability	Mtb hypoxia inh	Autofluor counter
- CCCC1=Nc2cc(C(=O)N3CCCC3)ccc2Sc2ccc(C)cc21
 : -5	-8	-6	-1.0	7	2	5014
- COc1ccc(NC(=O)CSc2nnc(N)s2)cc1
 : 2	-18	0	6.9	-1	9	3000
- Brc1cc2c(cc1/C=N/Nc1nc3ccccc3s1)OCO2
 : x	-59	x	x	4	x	3108
- COc1ccc(C(=O)C(OC(=O)c2ccccc2)c2ccccc2)cc1 (stereo not given)
 : 15	-48	3	-6.6	-9	4	9557
- O=C(NN=Cc1cccc(Oc2ccccc2)c1)c1ccccc1Br
 : 99*	x	6	-2.9	x	4	x
- N#CCSc1ccccc1NC(=O)COC(=O)CCN1C(=O)C2CC=CCC2C1=O (stereo not given)
 : 10	-17	-4	7.2	x	4	6144
- COc1cccc(C(CNC(=O)C2CCN(C(=O)Nc3ccccc3)CC2)N(C)C)c1 (stereo not given)
 : 2	-40	0	1.3	x	-9	3954
- CCCc1cc(=O)oc2c(C)c(OC(C)C(=O)NCC(O)c3ccccc3)ccc12 (stereo not given)
 : 2	-8	6	2.4	1	8	5952
- CCCOC(=O)c1ccc(NC(=O)CN(C)Cc2cccs2)cc1
 : 7	2	5	2.2	-12	2	5434
- O=C(O)COc1ccccc1/C=N/NC(=O)CSc1nc2ccccc2n1Cc1ccccc1Cl
 : x	-24	x	x	-1	x	4528
- CCN1/C(=C/c2ccc3ccc(C)cc3[n+]2CC)Sc2ccccc21
 : 100*	x	12	100*	x	22	x
- C=C1CCC2C(C)(C)[C@H](O)CC[C@@]2(C)[C@@H]1COc1cc(=O)oc2ccccc12 (stereo not given in full)
 : x	-9	x	x	-6	x	2967
- CC(OC(=O)c1cc(=O)[nH]c2ccccc12)C(=O)NC1CCCC1 (stereo not given)
 : 9	-19	-4	4.5	x	-4	2774
- O=C1COc2ccc(S(=O)(=O)N3CCCCC3)cc2N1
 : 4	-13	7	3.9	-1	8	5457
- Cc1onc(-c2ccccc2)c1C(=O)n1nnc2ccccc21
 : 8	-15	7	4.0	-2	2	4034
- CCOC(=O)c1c(NC(=O)CN2CCN(c3cccc(Cl)c3)CC2)sc(C)c1C
 : -5	3	0	0.8	x	10	4455
- CCN1CNC(=S)N(c2ccccc2OC)C1
 : 7	-10	-3	1.1	4	8	2008
- CC1(C)CC(=O)c2cnc(N3CCN(c4ccccc4)CC3)nc2C1
 : 5	-6	x	-0.2	13	x	2177

Screens from PubChem.
